Compound activity (PubChem BioAssay)
SARS PLP yeast – blocks SARS-CoV papain-like protease in a yeast assay; S. cerevisiae expressing SARS-CoV PLpro, growth rescue; control for the full effect not named in the record; AID 485353; Potency, µM (series often up to 32.9 µM), for the others: at the top dose activity, positive = growth rescue; 0.19% of 330,000 active; active means well fitted rising curve with a large enough effect; inconclusive means small, poorly fitted or top-dose-only effect; inactive means no such curve, though single readings can be large or run the other way; also: 0% is about no effect; nearly all actives have a fitted effect of over 55% in size; growth read by luminescence after 48 h
StopGo reporter – lowers the luciferase signal of an FMDV 2A StopGo reporter; human cells with a luciferase reporter of 2A StopGo recoding; control for the full effect not named in the record; 1.2% of 410,000 active; Potency, µM (doses to about 57.9 µM), inactives show at the highest dose signal change, negative = less light; active = well fitted falling curve with a large enough effect; inconclusive = small, poorly fitted or top-dose-only effect; inactive = no such curve, though single readings can be large or run the other way; tested in HEK293T cells; also: % is scaled to controls: 0 for no effect and ±100 for the full control effect; nearly all actives have a fitted effect of over 45% in size; luciferase light after 4 h
RE007 growth inh – less growth of the S. pombe RE007 Vpr strain. S. pombe RE007 Vpr strain, BacTiter-Glo ATP luminescence, 24 h; control for the full effect not named in the record. Potency, µM (series often up to 92.2 µM), for inactives: top-dose activity change, negative = less growth. 0.21% of 360,000 active. AID 651644; active = well fitted falling curve with a large enough effect; inconclusive = small, poorly fitted or top-dose-only effect; inactive = no such curve, though single readings can be large or run the other way;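 also: % is scaled to controls: 0 for no effect and ±100 for the full control effect; nearly all actives have a fitted effect of over 50% in size; the assay follows cell death caused by Vpr and the record does not say whether a fall means rescue or toxicity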
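Fission yeast strain RE007, carrying one chromosomally integrated HIV-1 vpr copy, was seeded at OD 0.01 in PMG+AL medium with 23 nL pinned compound. After 24 h at 30 °C and 99% humidity, viability was read by BacTiter-Glo luminescence.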
NS1 inh – influenza NS1 inhibition. Potency, µM (series often up to 46.1 µM), inactives show top-dose activity, positive = more growth. 0.4% of 270,000 active. AID 2326. S. cerevisiae slowed by influenza A NS1, growth recovery by OD600; active means well fitted rising curve with a large enough effect; inconclusive means small, poorly fitted or top-dose-only effect; inactive means no such curve, though single readings can be large or run the other way; also: nearly all actives have a fitted effect of over 50% in size
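In this qHTS, NS1 from influenza A is expressed in budding yeast, where it slows growth. Cells are switched from glucose to 2% galactose medium (pH 6.0, -URA), treated with compound, and growth recovery is read at OD600.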
Cruzain inh noDet – inhibitors of Trypanosoma cruzi cruzain without detergent | purified cruzain, Z-FR-AMC fluorescence, no detergent | Potency, µM, inactives show max response, negative = inhibition, actives largely listed as inhibitors | 2.3% of 200,000 active | AID 1476;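 also: plate controls were enzyme without inhibitor for no effect and buffer without enzyme for full effect; nearly all actives have a fitted effect of over 40% in size; top concentration of the series not given in the record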
Target sequence (P25779 123-467 limits assumed): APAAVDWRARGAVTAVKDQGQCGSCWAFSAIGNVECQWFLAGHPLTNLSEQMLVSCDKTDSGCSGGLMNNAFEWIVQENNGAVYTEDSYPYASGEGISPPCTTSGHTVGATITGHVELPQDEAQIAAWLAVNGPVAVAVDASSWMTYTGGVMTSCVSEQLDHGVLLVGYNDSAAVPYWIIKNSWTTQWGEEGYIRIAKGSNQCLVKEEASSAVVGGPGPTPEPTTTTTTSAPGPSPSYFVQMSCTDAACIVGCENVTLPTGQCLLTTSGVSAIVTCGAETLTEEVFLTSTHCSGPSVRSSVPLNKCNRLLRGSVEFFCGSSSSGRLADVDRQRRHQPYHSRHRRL
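Purified cruzain at 1.5 nM, pre-incubated 15 min with compound at room temperature in 100 mM sodium acetate pH 5.5, 5 mM DTT, 0.00005% Triton X-100. Reaction started with 2 uM Z-FR-AMC; AMC fluorescence increase over 60 s gives rate.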
Marburg entry inh – inhibitors of Marburg virus binding or cell entry | Marburg virus pseudotyped entry inhibition, cell reporter; control for the full effect not named in the record; about a third of the inactives were read at about 46 µM | Potency, µM (top dose mostly 37.8 µM), for inactives: at the highest dose activity change, negative = inhibition, usual class: inhibitors | 1.8% of 300,000 active; active = well fitted inhibition curve with a large enough effect; inconclusive = small, poorly fitted or top-dose-only effect, or effect the other way; inactive = flat fitted curve, though single readings scatter; tested in HEK293 cells; about a fifth of its hits are not listed in these tables; also: % is scaled to controls: 0 for no effect and ±100 for the full control effect; luciferase read-out
Cruzain Triton – inhibitors of Trypanosoma cruzi cruzain with detergent. P25779. purified cruzain, Z-FR-AMC fluorescence, 0.01% Triton. Potency, µM, without a hit: max response, negative = inhibition, most hits filed as inhibitors. 0.43% of 200,000 active. AID 1478;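 also: plate controls were neutral wells for no effect and buffer without enzyme for full effect; nearly all actives have a fitted effect of over 40% in size; top concentration of the series not given in the record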
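15 min RT preincubation of 1.5 nM cruzain with compound, then 2 uM Z-FR-AMC added; kinetic AMC fluorescence, 60 s delta. Triton X-100 0.01%, pH 5.5.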
Lassa entry inh – inhibitors of Lassa virus binding or cell entry | Potency, µM (top dose mostly 37.9 µM), without a hit: top-dose activity change, negative = inhibition, hits mostly inhibitors | 1.2% of 300,000 active | AID 540256 | Lassa virus pseudotype entry inhibition, cell reporter; control for the full effect not named in the record; active means well fitted inhibition curve with a large enough effect; inconclusive means small, poorly fitted or top-dose-only effect, or effect the other way; inactive means flat fitted curve, though single readings scatter; tested in HEK293 cells; also: % is scaled to controls: 0 for no effect and ±100 for the full control effect; nearly all actives have a fitted effect of over 50% in size; luciferase read-out
* hit, by the source's call; ? = inconclusive; · = no result given; [ ] = another dose, or the depositor's remark. Unless noted, calls follow the shape of the dose curve; as a rule, active = well fitted curve in the direction sought with a large enough effect; inconclusive = small, poorly fitted or top-dose-only effect, or another doubt; inactive = no such curve, though single readings can be large; an effect the other way counts as inactive or inconclusive. Potency is read from the fitted curve at half-maximal effect.

SMILES	SARS PLP yeast	StopGo reporter	RE007 growth inh	NS1 inh	Cruzain inh noDet	Marburg entry inh	Cruzain Triton	Lassa entry inh
Cc1ccc(C)c(CSc2nnc(-c3cccnc3)o2)c1	-7%	-2%	-9%	-69%	3%	-22%	3.3%	-14%[14.3 µM]
COC(=O)c1cc(OC)c(OC)cc1NC(=O)c1ccccc1C	1%	10%	-23%	1%	·	·	·	·
Cc1ccc(CN(C(=O)COc2ccc([N+](=O)[O-])cc2)c2ccccn2)o1	·	3%	·	·	-4%	1%[46.1 µM]	-6.8%	?
O=C(O)c1ccc(CCCc2ccccc2)cc1	·	18%	7%	·	·	10%[46.1 µM]	·	0%[46.1 µM]
Cc1ccc2c(c1)C1OCCC1C1N2C(=O)C2C(C(=O)O)C3C=CC21O3 (stereo not given)	1%	·	2%	-4%	7%	-2%	9.5%	12%
O=C(CSc1nnnn1C1CCCC1)Nc1ccc2c(c1)OCCO2	10%	·	12%	-7%	-5%	18%	-1.7%	-2%
COC(=O)C1CCN(C(=O)N2CCOCC2)CC1	4%	·	-4%	1%	-5%	11%	0.6%	4%
CC1CN(S(=O)(=O)c2cccc3cnccc23)CCN1 (stereo not given)	·	·	·	-8%	4%	?	-2.2%	?
CCOC(=O)N1CCN(C(=O)C2CCN(C(=O)c3cc(OC)cc(OC)c3)CC2)CC1	8%	-9%	-22%	-12%	3%	-12%	-1.0%	14%
O=C(COC(=O)CNC(=O)C1CCCCC1)Nc1ccc(Cl)cn1	-6%	10%	-3%	-10%	6.3µM*	?	6.3µM*	-5%
Cc1cccc(C)c1NC(=O)C1(N(Cc2ccco2)C(=O)c2ccccn2)CCCC1	-3%	-19%	4%	-6%	0%	3%	4.0%	1%
Cc1c(C(=O)N(C)C2CCCCC2)sc2ncnc(N3CCN(c4ccccc4)CC3)c12	-14%	?	-28%	-42%	·	·	·	·
CCCCn1c(-c2cccnc2)n[nH]c1=S	5%	-2%	-4%	4%	5%	5%	-0.2%	9%
CCOC(=O)N1CCC(NC(=O)CCS(=O)(=O)c2ccc3c(c2)CCN3C(C)=O)CC1	-4%	8%	-1%	1%	-9%	25%	0.8%	13%
CCOC(=O)C(=O)Nc1ccccc1C(=O)NC(C)C	-4%	-11%	2%	2%	-15%	22%	3.1%	10%
COc1ccccc1N1CCN(C(=O)CCc2c(C)nn(-c3ccc(N4CCCC4)nn3)c2C)CC1	·	-26%	·	·	-4%	·	-0.2%	-3%[46.1 µM]
CC1=C(C(=O)N(C)C)C(c2ccc(C)s2)NC(=S)N1 (stereo not given)	0%	-3%	1%	·	·	-19%[14.2 µM]	·	12%
Fc1ccc(-n2ncc3c(NCCCc4ccccc4)ncnc32)cc1	·	26%	·	·	?	·	-1.7%	3%[46.1 µM]
COc1ccc2oc(=O)c(-c3nc(-c4ccc(C)c(C)c4)cs3)cc2c1	·	0%	·	·	11%	·	2.3%	3%[46.1 µM]
CCOC(=O)C1CCN(CC(=O)NC(=O)NC2CCCCC2)CC1	4%	-10%	14%	·	·	-13%	·	-3%
CC1(C)CC(NNCCC#N)=CC(=[N+]2CCCC2)C1	-4%	2%	-22%	·	·	-3%[46.1 µM]	·	-13%
O=[N+]([O-])c1ccc(NCCCN2CCOCC2)c([N+](=O)[O-])c1	0%	-10%	-7%	3%	·	?	·	11%[46.1 µM]
COc1cccc(C(=O)N/N=C(/CCC(=O)O)c2ccccc2)c1	7%	-12%	-6%	13%	-8%	?	1.8%	-12%
NNC(=O)c1sc2nc(N3CCOCC3)c3c(c2c1N)CCCC3	0%	-21%	-11%	21%	·	·	·	·
CC1(c2nnc(-c3cccc(Cl)c3)o2)CC(c2ccccc2Br)=NO1 (stereo not given)	2%	-21%	27%	-17%	·	·	·	·
Cc1cccc(C)c1OCC(=O)Nc1cc(Cl)ccc1-n1cncn1	·	1%	4%	·	·	-30%	·	-1%
COc1ccc(S(=O)(=O)c2c(Nc3ccc(C)cc3C)sc(C(=O)c3ccc(F)cc3)c2N)cc1	·	2%	·	·	5µM*	·	-1.0%	-28%[46.1 µM]
Cc1cc(-c2nnc(CCC(=O)NC(C)c3ccc(F)cc3)o2)no1 (stereo not given)	-1%	26%	1%	2%	·	·	·	·
FC(F)(F)c1ccc2c(c1)nnn2C1CCN(Cc2nnnn2Cc2ccccc2)CC1	-1%	0%	12%	-11%	?	-1%[46.1 µM]	-7.5%	-1%
Cc1ccc(C(=O)NNC(=S)NCC2CCCO2)cc1[N+](=O)[O-] (stereo not given)	-2%	-14%	49%	1%	·	22%	·	1%
CCN(CC)CCNC(=O)Cn1ncc2ccccc2c1=O	0%	-17%	-2%	1%	·	0%[46.1 µM]	·	0%[46.1 µM]
CN(C)c1ccc(CN(C(=O)COc2ccc(F)cc2)C2CCS(=O)(=O)C2)cc1 (stereo not given)	4%	-1%	3%	?	1%	-2%	4.3%	-12%
COc1cccc(NC(=O)N(Cc2cn(C)c3ccccc23)C2CCCCCC2)c1	·	22%	·	·	?	-9%[46.1 µM]	-6.0%	?
CCc1ccccc1NC(=O)CN(C)S(=O)(=O)c1ccc(-c2ccc(=O)[nH]n2)s1	-1%	-5%	1%	10%	·	·	·	·
CCOc1ccc(S(=O)(=O)NCCc2c(C)[nH]c3c(Cl)cccc23)cc1C	·	15%	·	·	-15%	-15%[46.1 µM]	-13%	-21%[46.1 µM]
CC(NC(=O)c1ccccc1O)c1ccccc1 (stereo not given)	-13%	·	25%	-17%	1%	-22%	-1.2%	9%
O=C(COC(=O)CCc1c[nH]c2ccccc12)NCc1ccc(Cl)cc1	3%	9%	-7%	-25%	-12%	?	-10%	-10%
O=C(c1cccn2c(=O)c3cc(Cl)ccc3nc12)N1CCOCC1	-2%	13%	-3%	-1%	-5%	23%	-2.0%	-17%
Cc1ccc(C(=O)N2CCC(C(N)=O)CC2)cc1C	2%	-20%	3%	-4%	-12%	10%	4.5%	10%
CC(=O)c1ccccc1NS(C)(=O)=O	0%	7%	11%	·	·	18%[46.1 µM]	·	20%[46.1 µM]
O=C(c1ccc(S(=O)(=O)N2CCCCC2)cc1)N1CCN(CCN2C(=O)c3cccc4cccc(c34)C2=O)CC1	2%	16µM*	-13%	·	·	?	·	4%
Nc1c(C(=O)OCC(=O)NCc2ccccc2)[nH]c(=O)[nH]c1=O	-1%	2%	-7%	4%	·	-3%[46.1 µM]	·	-10%
COc1ccc(Cl)cc1NC(=O)c1ccco1	-5%	-10%	-28%	-23%	15%	1%	-5.6%	0%
O=C(O)c1ccc(COc2ccc(/C=N/NC(=O)c3cccs3)cc2)cc1	-1%	51%[activator]	-8%	-3%	-1%	2%	1.6%	?
O=C(O)/C=C/c1cccc2c1OCCO2	-2%	3%	-14%	-3%	·	·	·	·
COc1ccccc1-c1nnc(SCC(=O)NC2CC2)n1C	1%	-4%	-16%	·	·	5%	·	2%
COc1ccc(CCNc2nc3c(-c4cccc(F)c4)nnn3c3ccccc23)cc1OC	·	-23%	·	·	17%	14%[46.1 µM]	-1.3%	9%[46.1 µM]
C#CCNC(=O)C1=C[C@@H](c2ccc(C(F)(F)F)cc2)[C@H](CCCO)[C@@H](OCC)O1	0%	-13%	-2%	0%	·	·	·	·
O=C(CCCCCNC(=O)c1ccccc1)C[N+](=O)[O-]	1%	0%	-3%	18%	·	-2%	·	-2%

Part of the list above, with values under each structure:
Each structure is followed by: SARS PLP yeast | StopGo reporter | RE007 growth inh | NS1 inh | Cruzain inh noDet | Marburg entry inh | Cruzain Triton | Lassa entry inh
O=C(O)/C=C/c1cccc2c1OCCO2
    -2% | 3% | -14% | -3% | · | · | · | ·
COc1ccccc1-c1nnc(SCC(=O)NC2CC2)n1C
    1% | -4% | -16% | · | · | 5% | · | 2%
COc1ccc(CCNc2nc3c(-c4cccc(F)c4)nnn3c3ccccc23)cc1OC
    · | -23% | · | · | 17% | 14%[46.1 µM] | -1.3% | 9%[46.1 µM]

Entries above with fluorine, in the order listed:
SMILES	SARS PLP yeast	StopGo reporter	RE007 growth inh	NS1 inh	Cruzain inh noDet	Marburg entry inh	Cruzain Triton	Lassa entry inh
Fc1ccc(-n2ncc3c(NCCCc4ccccc4)ncnc32)cc1	·	26%	·	·	?	·	-1.7%	3%[46.1 µM]
COc1ccc(S(=O)(=O)c2c(Nc3ccc(C)cc3C)sc(C(=O)c3ccc(F)cc3)c2N)cc1	·	2%	·	·	5µM*	·	-1.0%	-28%[46.1 µM]
Cc1cc(-c2nnc(CCC(=O)NC(C)c3ccc(F)cc3)o2)no1 (stereo not given)	-1%	26%	1%	2%	·	·	·	·
FC(F)(F)c1ccc2c(c1)nnn2C1CCN(Cc2nnnn2Cc2ccccc2)CC1	-1%	0%	12%	-11%	?	-1%[46.1 µM]	-7.5%	-1%
CN(C)c1ccc(CN(C(=O)COc2ccc(F)cc2)C2CCS(=O)(=O)C2)cc1 (stereo not given)	4%	-1%	3%	?	1%	-2%	4.3%	-12%
COc1ccc(CCNc2nc3c(-c4cccc(F)c4)nnn3c3ccccc23)cc1OC	·	-23%	·	·	17%	14%[46.1 µM]	-1.3%	9%[46.1 µM]
C#CCNC(=O)C1=C[C@@H](c2ccc(C(F)(F)F)cc2)[C@H](CCCO)[C@@H](OCC)O1	0%	-13%	-2%	0%	·	·	·	·
